quorum sensing – Vibrio cholerae quorum sensing activators, luminescence (AID 686977); 9,400 tested, under 10 active; V. cholerae quorum sensing reporter, luminescence, 6 h; higher luminescence means a stronger effect; most inactives read 0; one-dose luminescence at 50 µM unless noted; EC50 in µM for titrated hits;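 active means light above mean plus 3 SD and confirmed in a dose series; inconclusive means above that limit without a clear retest; inactive means below it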;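 further: raw light counts without normalisation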
The depositor's hits bear a star; ? = inconclusive; [ ] = another dose, or the depositor's remark. These rows are one share of the data; the hit share may differ from the screen's.

1: CCOC(=O)c1cc(-c2ccc(C#N)cc2)nc2c1c(C)nn2CCC#N
  quorum sensing: 40
2: CC(C)(C)NC[C@H](O)COc1cccc2c1CCCC2=O
  quorum sensing: 0[10 µg/mL]
3: CCC(=O)Nc1nc2ccc3nc(C)sc3c2s1
  quorum sensing: 0
4: Cc1ccc(C(=O)N/N=C\c2ccc[nH]2)cn1
  quorum sensing: 40
5: Cc1ccc(S(=O)(=O)N(C)c2nonc2C)cc1
  quorum sensing: 0
6: CCOC(=O)C1=C(C)NC(C)=C(C(=O)OC)C1c1cccc([N+](=O)[O-])c1 (stereo not drawn)
  quorum sensing: 0[10 µg/mL]
7: COc1ccc(C(=O)CSc2n[nH]c(N)n2)cc1
  quorum sensing: 40
8: COc1cccc(N2CCN(c3ncnc4c3[nH]c3ccccc34)CC2C)c1 (stereo not drawn)
  quorum sensing: 0
9: COc1ccc(Cl)cc1N1C(=O)C2CCCN2C1c1cccc(F)c1 (stereo not drawn)
  quorum sensing: 0
10: CCCC(c1nnnn1Cc1ccco1)N1CCN(c2cc(Cl)ccc2C)CC1 (stereo not drawn)
  quorum sensing: 0
11: C[C@]12CC[C@@H]3c4ccc(OS(=O)(=O)O)cc4CC[C@H]3[C@@H]1CCC2=O
  quorum sensing: 0[10 µg/mL]
12: COc1ccc(Cn2c(=O)[nH]c3cc(C(=O)NCCCN4CCCCC4)ccc3c2=O)cc1
  quorum sensing: 0
13: CCc1nnc(NC(=O)CSc2nccn2-c2cc(C)cc(C)c2)s1
  quorum sensing: 0
14: c1ccc2c(-n3cnnn3)cccc2c1
  quorum sensing: 0
15: Cn1c(=O)c(C(=O)c2ccccc2)nc2ccccc21
  quorum sensing: 40
16: COc1ccc(Nc2nc3ccccc3n3cnnc23)cc1
  quorum sensing: 0
17: O=C(Cn1cnc2c(oc3ccccc32)c1=O)NCc1ccccc1
  quorum sensing: 120
18: O=C(O)CCCCNS(=O)(=O)c1ccc(Cl)c(C(F)(F)F)c1
  quorum sensing: 360
19: CC(=O)c1ccc(NC(=O)C2CCCN2S(=O)(=O)c2ccc(F)cc2)cc1 (stereo not drawn)
  quorum sensing: 0
20: COc1ccc(Nc2nc(N)nc(CN3CCc4ccccc4C3)n2)cc1
  quorum sensing: 0
21: Cc1ccccc1C(=O)O/N=C1\CCS(=O)(=O)c2sccc21
  quorum sensing: 0
22: COc1ccc2c(OC)c3ccoc3nc2c1OC
  quorum sensing: 0[10 µg/mL]
23: CCOC(=O)N1CCC(NC(=O)c2cnn3ccccc23)CC1
  quorum sensing: 40
24: O=C(CSc1nc2c(c(=O)n1-c1ccccc1)SCC2)N1CCOCC1
  quorum sensing: 0
25: COc1ccc(-n2c(C)cc(C(=O)CSc3nnc(-c4ccoc4C)n3C)c2C)cc1
  quorum sensing: 0

26: CCCn1c(C)cc(C(=O)COC(=O)c2cc(S(=O)(=O)NCC(C)C)c(Cl)cc2Cl)c1C
  quorum sensing: 0
27: CN/C(=C/[N+](=O)[O-])NCCSCc1csc(CN(C)C)n1
  quorum sensing: 0[10 µg/mL]
28: C1=Nc2c(Nc3ccccc3)ncnc2Oc2ccccc21
  quorum sensing: 0
29: C=C(C)CC1N(c2cccc(OC)c2)C(=O)C2C(C(=O)O)C3C=CC21O3 (stereo not drawn)
  quorum sensing: 240
30: Cc1ccnc(NC(=O)c2cc(S(=O)(=O)N3CCCCC3)ccc2Cl)c1
  quorum sensing: 0
31: COc1ccc(C2CCCN2C(=O)Nc2ccccc2)cc1OC (stereo not drawn)
  quorum sensing: 40
32: CCOC(=O)c1cnc2nc(COc3ccccc3)[nH]n2c1=O
  quorum sensing: 40
33: COc1ccc(Cn2nc(C)n(N(C)c3ncc(C(F)(F)F)cc3Cl)c2=O)cc1
  quorum sensing: 40
34: COc1cccc(S(=O)(=O)N2CCN(c3ccccc3F)CC2)c1
  quorum sensing: 0
35: CCCc1cc(C(=O)Cc2ccc(C(=O)OCC)o2)c(O)cc1O
  quorum sensing: 40
36: COc1ccc(-c2nc(CCNC(=O)c3cccs3)cs2)cc1
  quorum sensing: 40
37: COc1cc(C(=O)N(Cc2cccc(Cl)c2)C2CCS(=O)(=O)C2)cc(OC)c1OC (stereo not drawn)
  quorum sensing: 40
38: CCn1cc(C(=O)NC2CCCCC2)c(=O)c2cc(S(=O)(=O)N(C)C)ccc21
  quorum sensing: 40
39: Clc1ccc2oc(-c3ccccn3)nc2c1
  quorum sensing: 40
40: COc1ccc(-c2noc(CCC(=O)N3CCC(C)CC3)n2)cc1
  quorum sensing: 40
41: CCOC(=O)c1sc(NC(C)=O)nc1C
  quorum sensing: 0
42: Cc1ccc(S(=O)(=O)Nc2cc(-c3nn(C)c(=O)c4ccccc34)ccc2N2CCOCC2)cc1
  quorum sensing: 0
43: Cc1nn(Cc2ccc(Cl)cc2)c(C)c1NC(=O)CSc1nc2c(c(C(F)(F)F)n1)CCc1ccccc1-2
  quorum sensing: 0
44: CS(=O)(=O)Nc1ccc(C(=O)N2CCN(c3ccccc3F)CC2)cc1
  quorum sensing: 0
45: Cc1ccc(-c2nc(NC(=O)c3nn(C)cc3[N+](=O)[O-])sc2C)cc1C
  quorum sensing: 0
46: O=c1cc(O)c(-c2ccccc2)c(Cl)[nH]1
  quorum sensing: 0
47: O=C(O)CNC(=O)C(CS)Cc1ccccc1 (stereo not drawn)
  quorum sensing: 0[10 µg/mL]
48: CCOC(=O)N1CCC(Nc2c(NCCCN(CC)c3cccc(C)c3)c(=O)c2=O)CC1
  quorum sensing: 40
49: Cc1ccnc(N2CCC(C(=O)NNC(=O)c3ccccc3)CC2)n1
  quorum sensing: 40
50: Cc1ccc(Cl)cc1N1CCN(C(=O)C2CCN(c3nnc(-n4cccc4)s3)CC2)CC1
  quorum sensing: 40

51: Cc1[nH]c(=O)[nH]c(=O)c1NC(=O)CSc1ncccc1-c1nc2ccccc2[nH]1
  quorum sensing: 0
52: O=C1OC(c2ccc3c(c2)OCO3)N(C(=O)c2ccc(Cl)c(Cl)c2)c2ccccc21 (stereo not drawn)
  quorum sensing: 0
53: c1ccc(-c2nccc(-c3ccc(-n4cnc5ccccc54)cc3)n2)cc1
  quorum sensing: 0
54: Cc1ccc(SCc2cc(=O)[nH]c(Nc3nc(C)c4cccc(C)c4n3)n2)cc1
  quorum sensing: 40
55: CCC(Oc1ccccc1)C(=O)Nc1cc(C)on1 (stereo not drawn)
  quorum sensing: 40
56: COC(=O)c1cccc(NC(=O)/C=C/c2cccc([N+](=O)[O-])c2)c1
  quorum sensing: 0
57: O=C(CN1C(=O)COc2ccccc21)Nc1ccc(F)cc1
  quorum sensing: 680
58: CC(=O)n1nc(-c2ccco2)nc1SCc1ccccc1
  quorum sensing: 0
59: CC(C)NC[C@H](O)c1ccc(O)c(O)c1
  quorum sensing: 0[10 µg/mL]
60: CCOC(=O)c1[nH]c(C)c(C(=O)Nc2ccc(Cl)cc2)c1C
  quorum sensing: 0
61: CCOC(=O)C1(C)/C(=N/Nc2ccc(Cl)cc2)C(=O)C(=O)N1c1ccccc1 (stereo not drawn)
  quorum sensing: 40
62: Cn1c(=O)c2c(nc(NCc3ccccc3)n2Cc2ccc(F)cc2)n(C)c1=O
  quorum sensing: 0
63: N#Cc1c(-c2cccs2)cc(C2CC2)nc1SCC(N)=O
  quorum sensing: 0
64: Cc1nc(Nc2ccncc2)c2oc3ccccc3c2n1
  quorum sensing: 0
65: Cc1ccccc1NC(=O)CN1C(=O)COc2ccc(Cl)cc21
  quorum sensing: 0
66: CCCOc1ccc(NC(=O)CC2C(=O)N(CC)C(=S)N2Cc2cccs2)cc1 (stereo not drawn)
  quorum sensing: ?
67: Cc1ccc(NC(=O)N2CCC(C(=O)NCCC3=CCCCC3)CC2)cc1
  quorum sensing: 0
68: O=C(CSc1cn(CCNC(=O)c2cccs2)c2ccccc12)NCc1ccccc1
  quorum sensing: 0
69: CS(=O)(=O)N(CC(=O)N1CCN(C(c2ccccc2)c2ccccc2)CC1)C1CCCCC1
  quorum sensing: 40
70: O=C1c2cccnc2C(=O)N1Cc1cccs1
  quorum sensing: 0
71: Cc1ccc(C(=O)N2CCN(c3ccc(C(F)(F)F)cn3)CC2)c(C)c1
  quorum sensing: 280
72: C#CCN1C(=O)C2(C(C#N)=C(N)OC(C)=C2C(=O)OCc2ccccc2)c2ccccc21 (stereo not drawn)
  quorum sensing: 40
73: O=C(Nc1ccc2c(c1)CCC2)c1cc(S(=O)(=O)N2CCN(c3ccccc3)CC2)ccc1Cl
  quorum sensing: 0
74: O=C(CN1CCC(n2nnc3ccccc32)CC1)NCc1cccs1
  quorum sensing: 320
75: CCN(c1ccc(OC)cc1)c1ncnc2nc[nH]c12
  quorum sensing: 0

6 of these compounds, reformatted:
item | mol | quorum sensing
59 | CC(C)NC[C@H](O)c1ccc(O)c(O)c1 | 0[10 µg/mL]
60 | CCOC(=O)c1[nH]c(C)c(C(=O)Nc2ccc(Cl)cc2)c1C | 0
61 | CCOC(=O)C1(C)/C(=N/Nc2ccc(Cl)cc2)C(=O)C(=O)N1c1ccccc1 (stereo not drawn) | 40
62 | Cn1c(=O)c2c(nc(NCc3ccccc3)n2Cc2ccc(F)cc2)n(C)c1=O | 0
63 | N#Cc1c(-c2cccs2)cc(C2CC2)nc1SCC(N)=O | 0
64 | Cc1nc(Nc2ccncc2)c2oc3ccccc3c2n1 | 0

Additional entries
76: O=C(Nc1ccc2c3c(cccc13)CC2)c1ccco1
  quorum sensing: 0
77: CN(C)CCCN1c2ccccc2Sc2ccc(Cl)cc21
  quorum sensing: 0[10 µg/mL]
78: N#CCCN1CCN(S(=O)(=O)c2ccc(S(=O)(=O)NCC3CCCO3)cc2)CC1 (stereo not drawn)
  quorum sensing: 0
79: CC(C)c1ccc(NC(=O)CSc2nc3c(c(=O)[nH]2)CCC3)cc1
  quorum sensing: 0
80: COc1ccc(N2C(=O)C3CCCN3C2c2ccccc2)cc1 (stereo not drawn)
  quorum sensing: 0
81: CCOc1cc(CNc2ccc(Br)cc2)cc(Br)c1OCC(=O)NC(C)(C)C
  quorum sensing: 40
82: O=C(Nc1ccc2nc(-c3cccnc3)[nH]c2c1)c1ccco1
  quorum sensing: ?
83: NCCC[C@H](N)CC(=O)N[C@H]1CNC(=O)[C@H]([C@H]2C[C@H](O)NC(N)=N2)NC(=O)/C(=C/NC(N)=O)NC(=O)[C@H](CO)NC(=O)[C@H](CO)NC1=O
  quorum sensing: 0[10 µg/mL]
84: CCOC(=O)c1ccc(N2C(=O)C(C)=C(C)C2=O)cc1
  quorum sensing: 0
85: O=C1c2ccccc2C(=O)N1Cc1ccco1
  quorum sensing: ?
86: CC1=C(C(N)=O)C(c2ccccc2)n2nc(-c3cccs3)nc2N1 (stereo not drawn)
  quorum sensing: 40
87: CN(C)CCC=C1c2ccccc2C=Cc2ccccc21
  quorum sensing: 40[10 µg/mL]
88: Cc1c(Nc2nc3ccccc3nc2NS(=O)(=O)c2cccs2)c(=O)n(-c2ccccc2)n1C
  quorum sensing: 0
89: CSc1nc(C)cc(OCCO)n1
  quorum sensing: 0
90: Cc1cc(C)cc(N(CC(=O)N2CCN(c3ccccc3)CC2)S(=O)(=O)c2c(C)noc2C)c1
  quorum sensing: 0
91: CC(=O)OCC(=O)[C@@]1(O)[C@H](C)C[C@H]2[C@@H]3CCC4=CC(=O)C=C[C@]4(C)[C@@]3(F)[C@@H](O)C[C@@]21C
  quorum sensing: ?
92: O=C(CC1Oc2ccccc2NC1=O)NCCc1ccccc1 (stereo not drawn)
  quorum sensing: 0
93: CCOC(=O)N1CCC(N2C(=O)c3ccccc3C2Nc2ccccc2)CC1 (stereo not drawn)
  quorum sensing: 0
94: O=C(Nc1ccccc1NC(=O)NC1CCCCC1)NC1CCCCC1
  quorum sensing: 40
95: CC1=CC(C)(C)N(C(=O)CSc2nccn2C)c2cc(C)ccc21
  quorum sensing: 0
96: S=c1sc2c(N3CCOCC3)ncnc2n1-c1ccccc1
  quorum sensing: 0
97: CN(CCCNC(=O)c1cn(C)c2ccc(S(=O)(=O)N(C)C)cc2c1=O)c1ccccc1
  quorum sensing: 0
98: Cn1cccc1Cc1nnc(SCC(=O)Nc2ccc(F)cc2)n1-c1ccc(F)cc1
  quorum sensing: 40
99: CC1(C)CC(=O)C2=C(C1)NC(=O)CC2C(=O)NCc1ccc(F)cc1 (stereo not drawn)
  quorum sensing: 0
100: CCOC(=O)c1cnn(-c2c(Cc3ccccc3)c(C)nc3c(-c4ccccc4)c(C)nn23)c1N
  quorum sensing: 0

Among those listed so far, 4 contain a CF3 group:
18: O=C(O)CCCCNS(=O)(=O)c1ccc(Cl)c(C(F)(F)F)c1
  quorum sensing: 360
33: COc1ccc(Cn2nc(C)n(N(C)c3ncc(C(F)(F)F)cc3Cl)c2=O)cc1
  quorum sensing: 40
43: Cc1nn(Cc2ccc(Cl)cc2)c(C)c1NC(=O)CSc1nc2c(c(C(F)(F)F)n1)CCc1ccccc1-2
  quorum sensing: 0
71: Cc1ccc(C(=O)N2CCN(c3ccc(C(F)(F)F)cn3)CC2)c(C)c1
  quorum sensing: 280

An excerpt of these results, with tabs.
cpd	Structure	quorum sensing
91	CC(=O)OCC(=O)[C@@]1(O)[C@H](C)C[C@H]2[C@@H]3CCC4=CC(=O)C=C[C@]4(C)[C@@]3(F)[C@@H](O)C[C@@]21C	?
77	CN(C)CCCN1c2ccccc2Sc2ccc(Cl)cc21	0[10 µg/mL]
94	O=C(Nc1ccccc1NC(=O)NC1CCCCC1)NC1CCCCC1	40
78	N#CCCN1CCN(S(=O)(=O)c2ccc(S(=O)(=O)NCC3CCCO3)cc2)CC1 (stereo not drawn)	0

(further entries)
101: O=C(O)c1ccnc(C(=O)O)c1
  quorum sensing: 0
102: Cc1ccc2c(c1)nnn2C1CCN(CC(=O)N2CCN(c3ccc(F)cc3)CC2)CC1
  quorum sensing: 0
103: CC(=O)N1c2c(ccc3ccccc23)C(C)CC12CCCCC2 (stereo not drawn)
  quorum sensing: 0
104: CCn1c(C)nc2cc(-c3nnc(-c4c(-c5ccccc5)noc4C)o3)ccc21
  quorum sensing: 40
105: CCCn1ncc(C(=O)O)c1C
  quorum sensing: 0
106: Nc1nc(-c2cccc(Br)c2)cs1
  quorum sensing: 0
107: CCCN1Cc2cccc(C(=O)NCc3ccccc3OC)c2C1=O
  quorum sensing: 0

Source: PubChem (Southern Research Specialized Biocontainment Screening Center)
